Rango-impB inh – inhibitors of Rango-importin beta complex formation | Q14974 | Rango CFP/YFP FRET sensor + importin beta, 45 min | Potency, µM (doses to about 92.2 µM), for inactives: at the top dose inhibition of complex formation | 0.031% of 340,000 active; active = rising FRET ratio curve, often small or poorly fitted; inconclusive = mostly compound fluorescence or quenching in the first reads; inactive = flat curves in all reads;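 further: potency means the concentration at half of the fitted maximal effect; 0% = DMSO wells and 100% = buffer wells lacking importin beta; nearly all actives have a fitted effect of over 15% in size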
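Inhibition scored from the CFP 486 nm/YFP 530 nm FRET ratio 45 min after adding 0.125 microM importin beta to 50 nM Rango biosensor preincubated 5 min with compound (room temperature, PBS with DTT, Tween-20, BSA). No-importin wells as positive control.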
GLA inh pH 4.5 – inhibitors of human alpha-galactosidase A at pH 4.5 | P06280 | purified enzyme, 4-MU-alpha-Gal fluorescence, pH 4.5 | activity change, negative = inhibition, % at 105 µM | 230,000 tested, under 10 active; inconclusive = small, poorly fitted or top-dose-only inhibition, or a rising curve; inactive = flat fitted curve, though single readings scatter; no compound was filed as active;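 further: 0% = full activity with enzyme and -100% = basal without enzyme; dose as in the result columns while the protocol names 77 µM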
Target sequence (P06280 whole entry, looked up): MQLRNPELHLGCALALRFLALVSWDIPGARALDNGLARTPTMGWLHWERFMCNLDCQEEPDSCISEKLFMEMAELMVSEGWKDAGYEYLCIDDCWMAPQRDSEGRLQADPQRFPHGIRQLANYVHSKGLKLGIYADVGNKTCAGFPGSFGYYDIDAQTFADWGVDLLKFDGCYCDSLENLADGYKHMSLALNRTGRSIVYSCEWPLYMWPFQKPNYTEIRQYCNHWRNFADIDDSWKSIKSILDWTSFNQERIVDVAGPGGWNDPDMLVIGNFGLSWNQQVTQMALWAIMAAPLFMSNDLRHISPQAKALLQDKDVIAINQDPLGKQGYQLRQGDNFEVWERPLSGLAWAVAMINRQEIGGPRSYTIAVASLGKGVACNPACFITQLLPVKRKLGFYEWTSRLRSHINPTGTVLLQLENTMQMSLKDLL
miR-21 reporter – miR-21 reporter, rising signal | HeLa miR-21 FLuc reporter, luciferase, 48 h | Potency, µM (highest dose often 38.3 µM), inactives show at the highest dose reporter change, positive = more light | 340,000 tested, under 10 active | AID 2288; active = well fitted rising curve with a large enough effect; inconclusive = small, poorly fitted or top-dose-only effect; inactive = no such curve, though single readings can be large or run the other way;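 further: % of control where 0% means no effect; miR-21 action dims this reporter so a rising signal means less miR-21 action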
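Compounds were titrated across several concentrations (up to approximately 40 uM) and incubated 48 hours with HeLa miR-21-FLuc reporter cells (miR-21 target sequence downstream of FLuc, endogenous miR-21). Readout was firefly luciferase luminescence after lytic detection reagent.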
Rango release inh – inhibitors of RanGTP-induced Rango-importin beta complex dissociation; Biochemical FRET Rango-importin beta, RanGTP-induced dissociation; Potency, µM (titrated, usually from 46.1 µM), inactives show top-dose activity change, negative = inhibition; 0.071% of 340,000 active; AID 540253; active means falling FRET ratio curve, often poorly fitted, with flat reads before Ran was added; inconclusive means other falling curves, or compound fluorescence or quenching; inactive means flat or rising ratio curve;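 further: potency means the concentration at half of the fitted maximal effect; % of control where 0% means no effect; nearly all actives have a fitted effect of over 45% in size; -100% = wells without RanGTP and RCC1; the record marks most hits as doubtful in a second field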
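Rango FRET biosensor (snurportin-1 IBB flanked by N-terminal EYFP and C-terminal CFP10) at 0.1 uM, with 0.25 uM importin beta in PBS, 1mM DTT, 0.02% Tween-20, 0.1% BSA. 0.6 uM Ran, 2mM GTP and 0.2 uM RCC1 were then added for 45 min at room temperature. Inhibition read as loss of FRET rise.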
Starred values were filed as active, the others as inactive; ? = inconclusive; nt = not tested or not shown; & = joins results of further samples. Only part of the results is shown; the hit share may differ from the screen's.

compound | Rango-impB inh | GLA inh pH 4.5 | miR-21 reporter | Rango release inh
CC1CCN(c2ccc(/C=N/n3nnnc3N)cc2[N+](=O)[O-])CC1 | 3.1% | -9 | -22% | -1%
O=C(c1cc(Sc2cccc(Cl)c2)nc2ccccc12)N1CCN(c2ccccn2)CC1 | 1.9% | -5 | 7% | 8%
COc1ccc(-c2nn(CCC(=O)O)cc2CCC(=O)O)cc1 | -1.7% | 8 | 1% | ?
CCc1nc2ccc(C(=O)N3CCN(c4cccc(OC)c4)CC3)cc2nc1CC | 0.6% | nt | -6%&-1% | 2%
CC(c1ccc(O)cc1)(c1ccc(O)cc1)c1ccc(CCBr)cc1 | 8.7% | nt | 3% | 24%
C#CCOCCOCCOCCNc1nc(N2CCN(C(=O)[C@H](CCCN=C(N)N)n3cc(C(N)[C@@H](C)CC)nn3)CC2)nc(N2CCN(C(=O)[C@H](CO)n3cc([C@@H](N)C(C)C)nn3)CC2)n1 (some centres not stated) | 5.5% | nt | nt | 2%
Cc1ccc(CN2CCN(Cc3cn[nH]c3C3CCCCC3)CC2CCO)cc1 (configuration not stated) | 1.4% | -7 | -1% | 19%
C[C@]12CC[C@@H]3c4ccc(O)cc4CC[C@H]3[C@@H]1CC[C@@H]2O | 0.2% | 2&-4 | 14% | -7%
CCOc1ccc(S(=O)(=O)NCc2cccs2)cc1C(C)C | 2.0% | nt | nt | 1%
Cc1nn(C)cc1-c1csc(N)n1 | -3.0% | 6 | -3% | -3%
CCSc1nnc(NC(=O)c2csc3c2CCC(C)C3)s1 (configuration not stated) | 4.7% | -6 | 0% | 5%
COc1ccc(C2=NN(C(=O)CSC3=NN4CCCC(=O)N=C4S3)C(c3cccc(OC)c3OC)C2)cc1 (configuration not stated) | -1.0% | 0 | -12% | -12%
COC(=O)c1ccc(CNC(=O)c2c3c(nc4ccccc24)CCN(Cc2ccccc2)C3)cc1 | 0.4% | -4 | -3% | ?
CCCc1nc2ccccc2c(C(=O)OCC(=O)Nc2ccc(S(=O)(=O)N3CCOCC3)cc2)c1CC | -3.1% | -10 | ? | -9%
CCOc1cc(/C=N/NC(=O)c2cccc(S(=O)(=O)N3CCCC3)c2)ccc1OCC(=O)N(C)C | -0.9% | nt | nt | -7%
COC(=O)c1ccccc1NC(=O)N1CCN(c2ccc(F)cc2)CC1 | -1.5% | -1 | -3% | -1%
CCN1/C(=C/c2cc[n+](CCCS(=O)(=O)[O-])c3ccccc23)Sc2ccccc21 | 7.1% | 10 | 1% | -3%
Cn1nnnc1SCC(=O)N1CCN(C(c2ccccc2)c2ccccc2)CC1 | -3.4% | -13 | -2% | -10%
Cc1ccc(N(C(=O)NC2CCCCC2)C2=NCCCCC2)cc1 | 1.7% | -4 | -18% | -15%
CCn1cc(CNC(=O)c2cc(COc3ccc(F)cc3F)on2)cn1 | -1.3% | 3 | -4% | 14%
CCOC(=O)C1(Cc2cccc(F)c2)CCN(C(=O)C2CCCO2)CC1 (configuration not stated) | -0.2% | 0 | 1% | -22%
CC(C)(C)C(=O)Nc1c2c(nn1-c1ccc(F)cc1)CSC2 | 0.9% | nt | -1% | 6%
COc1cc(O)c(NC(C)=O)c2nonc12 | -0.9% | -9 | -7% | 25%
C=CCC[C@@H](Cc1ccc(F)cc1)C(=O)OC[C@@H](Cc1c[nH]c2ccccc12)NC(=O)[C@H](CC=C)CC(=O)N[C@H](CO)Cc1ccccc1 | 0.6% | nt | nt | 16%
CCO[C@H]1OC(C(=O)N2CCN(Cc3ccc4c(c3)OCO4)CC2)=C[C@@H](c2ccc(C(F)(F)F)cc2)[C@@H]1CCCO | -2.2% | -15 | 21% | 4%
CCc1nc2sc3c(=O)n(N)cnc3c2c2c1COC(C)(C)C2 | nt | 6 | -8% | nt
O=C1CCCC(O)=C1Sc1cc(Cl)c(Cl)cc1Cl | -0.4% | nt | nt | 16%
O/N=C(\c1ccc(Cl)cc1)c1cc2ccccc2o1 | 0.0% | -15 | 9% | 10%
COc1ccc(N2C(=O)CN=C2Nc2nc(C)cc(C)n2)cc1OC | -4.0% | 3 | 2% | 2%
COc1ccc(-n2c(C)cc(C(=O)CSc3nnc(-c4cccs4)o3)c2C)cc1 | -0.2% | 5 | 16% | 0%
O=C1CN(C(=O)c2ccccc2)C(c2ccccc2)c2cc(F)ccc2N1 (configuration not stated) | 2.2% | nt | 4% | -8%
Cc1ccc(CN(C)C(=O)CN2C(=O)NC3(CCCC3)C2=O)o1 | 0.3% | nt | nt | -2%
O=C(NCCN1CCCC1)C1COc2ccccc2O1 (configuration not stated) | -1.0% | -9 | -2% | -8%
C=CCNc1sc(C(=O)C(C)(C)C)c(N)c1C#N | 3.7% | 0 | -22% | 0%
COc1ccccc1-c1cn(S(=O)(=O)c2ccc(F)cc2)nc1N | -4.7% | 6 | 14% | 19%
O=C(COC(=O)CCCN1C(=O)c2cccc3cccc(c23)C1=O)Nc1ccc(Cl)cc1 | 5.1% | 2 | -26% | 6%
CCOCCCNS(=O)(=O)c1ccc2c(c1)CCN2C(=O)CC | 5.6% | -4 | -5% | 5%
CC1CCN(Cc2c(C(=O)N/N=C/c3cccc(Cl)c3)nnn2-c2nonc2N)CC1 | 0.0% | nt | -7% | 19%
COc1cccc(C(=O)Nc2ccc(NC(=O)C3CCCCC3C(=O)O)cc2)c1 (configuration not stated) | -0.5% | nt | -16% | 11%
CN(Cc1ccc(F)cc1)C(=O)c1cccc(S(=O)(=O)N2CCN(c3ccc(F)cc3)CC2)c1 | 6.3% | nt | nt | 8%
CCOC(=O)c1c(NC(=O)C(C)N2CCN(C(=O)c3ccco3)CC2)sc2c1CCCC2 (configuration not stated) | -1.6% | -21 | 19% | -2%
N#C/C(=C/c1ccccc1)c1nn(CCO)c(N)c1C#N | -1.0% | -5 | -41% | -9%
CCOC(=O)CSc1ncnc2c1cnn2-c1ccc(C)cc1 | 0.1% | 1 | -2% | 14%
COc1ccc2c(c1[N+](=O)[O-])CCC/C2=N/OC(=O)c1cccc2ccccc12 | -0.2% | -3 | -13% | 0%
COc1ccc(-c2noc(CCCOc3ccccc3)n2)cc1OC | -1.1% | -2 | -5% | 1%
COc1ccc(/C=N/NC(=S)Nc2ccccc2)cc1COc1ccc(F)cc1F | -4.4% | -2 | -12% | 1%
CC1CC(=NNC(=O)C2COc3ccccc3O2)CC(C)(C)C1 (configuration not stated) | -1.8% | nt | nt | 23%
C=C1CCN([C@@H](CC(C)C)C(=O)NCc2cc(OC)c(OC)c(OC)c2)S(=O)(=O)c2ccccc21 | 7.1% | nt | nt | -12%
O=C(/C=C/c1ccc([N+](=O)[O-])cc1)N1CCN(S(=O)(=O)c2cccs2)CC1 | -0.8% | 1 | 3% | 6%
Cn1c(N)c(C(=O)Nc2cccc(Cl)c2)c(=O)n(C)c1=O | 2.2% | nt | -26% | 4%
CN(CC(=O)O/N=C(\N)c1ccccn1)S(=O)(=O)c1ccccc1 | -6.0% | -1 | -17% | -1%
O=C1N=c2ccccc2=C1c1sc(=S)n(Cc2ccccc2Cl)c1O | -0.4% | 1 | 2% | 2%
CC(C)=CCN1CCN(Cc2cnc(C)s2)CC1CCO (configuration not stated) | 3.7% | 2 | -17% | -3%
O=c1c2c(nc3c(-c4ccccc4)c[nH]n13)CCCC2 | 0.8% | 0 | 0% | 1%
COCC(C)N1CCC(Oc2ccc(C(=O)NCc3ccccn3)cc2)CC1 (configuration not stated) | -3.5% | nt | -4% | -2%
COc1cc(C2=NOC(C(=O)Nc3c(C)n(C)n(-c4ccccc4)c3=O)C2)cc(OC)c1OC (configuration not stated) | 5.8% | 6 | 3% | -20%
CCOC(=O)C1=C(C)Nc2nc(SCC)nn2C1c1ccc(OC)cc1 (configuration not stated) | -0.1% | 0 | -2% | 5%
CC(C)c1cccc(-c2ccc3c(c2)S(=O)(=O)c2cccc(C(=O)NCc4ccccc4Cl)c2C3=O)c1 | -1.2% | nt | nt | 8%
Clc1ccc(Cl)c2sc(N3CCOCC3)nc12 | ? | nt | nt | 5%
Cc1[nH]c2ccccc2c1Cc1nnc(SCC(N)=O)o1 | ? | 8 | -7% | ?

(list continues)
compound | Rango-impB inh | GLA inh pH 4.5 | miR-21 reporter | Rango release inh
CCN(Cc1ccncc1)C(=O)c1ccc(Br)o1 | ? | nt | -11% | ?
CC(C)c1ccc(/C=N/NC(=O)CC(=O)NCc2ccccc2)cc1 | 2.1% | 1 | -3% | 13%
COc1ccc(S(=O)(=O)N2CCc3ccccc32)cc1C(=O)Nc1ccc(NC(C)=O)cc1 | 3.5% | nt | nt | 3%
COc1ccc(N(C)S(=O)(=O)c2ccc(Cl)c(C(=O)NCC(C)(C)N3CCOCC3)c2)cc1 | -1.4% | nt | nt | 0%
O=C(CNS(=O)(=O)c1ccccc1)N/N=C/c1ccc(O)cc1 | 1.1% | 4 | -2% | 14%
O=C(OCC(=O)N1CCOCC1)c1ccccc1Cc1ccccc1 | -2.5% | -7 | -68% | -13%
COc1ccc(Cl)cc1C(=O)Nc1ccc(CN2CCCCC2)cc1 | -7.1% | -21 | -21% | 23%
CC(C)C1=NN(C(=O)c2cccnc2)C(O)(C(F)(F)F)C1 (configuration not stated) | -1.9% | -10 | -3% | 3%
Cc1cccc(C)c1NC(=S)NC(=O)c1ccc(Br)o1 | -4.7% | 3 | 0% | 4%
Cc1ccc2cc([N+](=O)[O-])ccc2n1 | 3.7% | -5 | -1% | 0%
CC(C)(C)NC(=O)C1Cc2ccccc2CN1C(=O)Nc1cccc(Cl)c1 (configuration not stated) | -0.7% | 2 | -5% | 22%
COc1ccc(CN(CCCN2CCOCC2)S(=O)(=O)N(C)C)cc1OC | 0.2% | -3 | -5% | 14%
COC(=O)CCCCC1SCC(NC(=O)c2ccccc2)C1OC(C)=O (configuration not stated) | -0.4% | -5 | -2% | 1%
Cc1nnc(SCC(=O)Nc2ccc(S(=O)(=O)Nc3ccc(Cl)nn3)cc2)s1 | 3.1% | nt | 3% | -11%
COC(=O)CN(c1ccc(OC)cc1OC)S(=O)(=O)c1ccccc1[N+](=O)[O-] | -2.3% | 4 | 0% | -23%
CN1C(=O)/C(=C/c2ccccc2OCc2ccc(C(=O)O)cc2)NC1=S | ? | 2 | -7% | -25%
CC1CCN(CCCNC(=O)CCNC(=O)Cn2cnc3ccccc3c2=O)CC1 | -1.0% | nt | 6% | 1%
CCCOc1ccc(CC(=O)NCCc2ccccc2)cc1OC | -0.5% | nt | -2% | -19%
CCCOc1ccc(/C=C/c2[nH]c(=O)[nH]c(=O)c2[N+](=O)[O-])cc1OCC | 3.6% | 0 | -1% | 0%
CCC1CCC2(CC1)NC(=O)N(CC(=O)Nc1ccc(OC)c(Cl)c1)C2=O (configuration not stated) | 1.2% | nt | nt | -6%
CC(=O)N1CCN(C(=O)c2ccc(Cl)c(S(=O)(=O)N3CCc4ccccc43)c2)CC1 | -5.7% | nt | nt | 0%
Cc1cc(C(=O)NNC(=O)/C=C/c2ccccc2Cl)c(C)o1 | -0.2% | nt | -6% | 0%
CCOC(=O)N1CCN(C(=O)CNC(=O)c2nn(-c3ccc(OC)cc3OC)c(=O)c3ccccc23)CC1 | -0.4% | nt | -9% | -26%
CCN1C(=C(C#N)C#N)C=Cc2cc(C)ccc21 | ? | 7 | -10% | ?
CC1(C)C=Cc2c(c3ccccc3[nH]c2=O)O1 | 0.0% | -10 | -4% | -4%
COc1cccc(C(=O)O/N=C(\N)c2ccccn2)c1 | -2.4% | nt | 24% | 6%
O=C(COc1ccccc1)NCCSCc1ccc(Cl)cc1 | -6.6% | 1 | 0% | 3%
Cc1cc(S(=O)(=O)NC2CCN(Cc3ccccc3)CC2)c(C)cc1Cl | -2.9% | -7 | 13% | 17%
O=S(=O)(N/N=C\c1cccc(F)c1)c1ccccc1 | 2.5% | nt | -4% | -4%
COc1cc2c(cc1OC)C(NC(=O)c1ccc(C)cc1)CC2=O (configuration not stated) | 5.3% | nt | -3% | 12%
CC(C)C1Cc2c(sc3ncnc(NN)c23)CO1 (configuration not stated) | -0.5% | nt | -1% | 18%

Assay outcomes as filed in PubChem BioAssay.
